ALR H2O2 inh: inhibitors of human sulfhydryl oxidase ALR; P55789; purified ALR, DTT oxidation, H2O2 HRP-luminol luminescence; inhibition, % (concentration not given with the values); 3.8% of 290,000 active;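 active = mean and each replicate at 75% or more; inconclusive = only one of the two met; inactive = neither met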;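 also: stock transfer was 7.5 nL into about 7.5 µL; 0% = neutral wells and 100% = wells with inactivated enzyme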
Target sequence (P55789 whole entry, looked up): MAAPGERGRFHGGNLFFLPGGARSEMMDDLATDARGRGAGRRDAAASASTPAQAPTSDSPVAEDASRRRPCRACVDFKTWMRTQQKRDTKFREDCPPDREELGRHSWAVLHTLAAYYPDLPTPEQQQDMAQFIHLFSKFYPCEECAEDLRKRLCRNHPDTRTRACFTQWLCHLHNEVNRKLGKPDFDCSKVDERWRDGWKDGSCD
FGF22 binding: FGF22 (human) thermal shift binding. Q9HCT0. recombinant FGF22 thermal shift, SYPRO orange fluorescence; percent of sucrose octasulfate shift, DMSO zero. calls only at 9.99 µM. 1.5% of 340,000 active. AID 651658;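 active = melting point raised past a set limit in the mean and every replicate; inconclusive = no clear call; three in four hits are not shown here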
Target sequence (Q9HCT0 whole entry, looked up): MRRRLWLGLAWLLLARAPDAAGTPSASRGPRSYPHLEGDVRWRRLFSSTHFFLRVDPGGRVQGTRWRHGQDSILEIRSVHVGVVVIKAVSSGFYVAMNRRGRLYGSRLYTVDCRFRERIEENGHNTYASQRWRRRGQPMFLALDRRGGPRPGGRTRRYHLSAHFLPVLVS
RanGTP-Impb inh: inhibitors of RanGTP-importin-beta interaction, primary screen, biochemical, FRET, CFP-Ran, YFP-importin-beta, homogeneous | cell-free CFP-Ran/YFP-importin-beta FRET ratio | inhibition, % (test concentration not listed) | 1.1% of 300,000 active | AID 2216;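 active = most replicates above 15%; inconclusive = exactly half above 15%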;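 also: 0% = DMSO wells and 100% = Ran loaded with GDP instead of GTP; wells of about 40 µL received 100 nL stock; the first replicate is given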
Beta cell apopt: blocks beta cell apoptosis | INS-1E cytokine-induced death, ATP luminescence, 48 h; percent of positive-control rescue, neutral wells zero | protection from apoptosis, % (concentration not given with the values) | 0.8% of 300,000 active;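 active = all replicates at 75% or more, or half of them and the mean; inconclusive = half reach 75% but not the mean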;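 also: 0% = cytokine-treated negative control wells and 100% = positive control rescue; higher means more ATP so stronger rescue from cytokine killing; wells of about 40 µL received 100 nL stock; the first replicate is given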
MLL AF4-AF9 inh: MLL-AF4/AF9 protein interaction inhibition | 0.47% of 350,000 active | inhibition, % at 10 µM | P42568 | AlphaScreen, biotin-AF4 peptide binding to FLAG-AF9;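 active = every replicate reaching a set inhibition limit, whatever the replicate mean, cut at about 25% in these data; inconclusive = mean inhibition reaches that limit but some replicates miss it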;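 also: 0% = plate neutral control median and 100% = total signal loss; the record names both 10 and 1 µM as test concentration; the first replicate is given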
Target sequence (P42568 whole entry, looked up): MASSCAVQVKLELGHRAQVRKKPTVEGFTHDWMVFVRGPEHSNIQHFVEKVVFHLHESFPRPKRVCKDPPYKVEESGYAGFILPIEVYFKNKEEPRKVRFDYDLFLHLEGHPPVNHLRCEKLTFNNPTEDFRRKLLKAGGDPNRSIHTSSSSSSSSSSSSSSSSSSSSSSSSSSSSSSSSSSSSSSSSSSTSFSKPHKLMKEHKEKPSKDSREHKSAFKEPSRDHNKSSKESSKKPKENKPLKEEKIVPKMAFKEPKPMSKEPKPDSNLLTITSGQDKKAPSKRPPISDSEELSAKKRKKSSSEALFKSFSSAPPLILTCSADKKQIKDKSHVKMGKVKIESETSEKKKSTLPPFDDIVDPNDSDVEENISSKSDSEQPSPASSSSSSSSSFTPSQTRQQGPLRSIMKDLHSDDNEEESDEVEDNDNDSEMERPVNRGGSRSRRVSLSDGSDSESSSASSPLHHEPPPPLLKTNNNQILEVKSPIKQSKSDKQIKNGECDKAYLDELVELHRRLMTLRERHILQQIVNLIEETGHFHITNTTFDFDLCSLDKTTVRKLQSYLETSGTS
Calb FLC: C. albicans growth modulation with fluconazole | C. albicans CaCi-2 (fluconazole-resistant clinical isolate) + fluconazole, Alamar Blue growth, 48 h | growth inhibition, % (test concentration not listed) | 0.57% of 300,000 active;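 active = most replicates above 75%; inconclusive = exactly half above 75%; inactive = most below 75%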;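 also: all wells also contain fluconazole at 8 µg/ml as a sub-toxic cotreatment; 0% = median of DMSO wells and 100% = median of geldanamycin control wells; wells of about 8 µL received 7.5 nL stock; the first replicate is given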
Ecoli rRNA inh: selective bacterial rRNA inhibition in E. coli; 1.6% of 350,000 active; GFP signal change (wild-type ribosome), % (no concentration beside the values); E. coli WT GFP vs humanized-ribosome RFP mutants, fluorescence, 24 h; hits give low values; DMSO median 0, no signal -100;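 active = significant combined selectivity score with lowered wild-type GFP, culture density cut under 30%, mutant RFP and density less affected; inactive = any of these conditions unmet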; also: one replicate is shown; some compounds called inactive have numbers as strong as hits
T cruzi inh: blocks replication of Trypanosoma cruzi | T. cruzi beta-gal in NIH3T3, luminescence, 90 h | inhibition, % (no concentration beside the values) | AID 1885 | 1.4% of 300,000 active;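 active = mean inhibition across valid replicates above about 55%, limit read from the data; inconclusive = mean below that limit but half or more replicates reach it; inactive = mean below it, under half of replicates reach it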;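 also: signal also drops with host cell toxicity which is not excluded here; 0% = plate median of DMSO wells and 100% = zero luminescence signal; higher percent means less beta-gal luminescence so fewer parasites; stock transfer was 50 nL into about 50 µL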
Ecoli rRNA inh OD600: second read-out of Ecoli rRNA inh, no call of its own (marks repeat the call); OD600 change, %; measured here: OD600 growth;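 optical density of the mix in the first replicate; 0 = DMSO median and -100 = no signal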
Ecoli rRNA inh RFP: also measured in Ecoli rRNA inh; calls as there; RFP signal change, %; measured here: RFP humanized mutant strains;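 first replicate; 0 = DMSO median and -100 = no signal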
* marks the source's active call; other numbers are inactive results; i = inactive; ? = inconclusive; . = not tested or not shown; & = joins results of further samples.

SMILES	ALR H2O2 inh	FGF22 binding	RanGTP-Impb inh	Beta cell apopt	MLL AF4-AF9 inh	Calb FLC	Ecoli rRNA inh	Ecoli rRNA inh OD600	Ecoli rRNA inh RFP	T cruzi inh
NC(=O)c1ccc[n+](CC(=O)c2ccc(Cl)c(Cl)c2)c1	-15.0	i	5.1	-10.2	1.5	3.2	4.9	4.0	4.4	-1.8
O=C(CCN1CCCCC1)c1ccc2c(c1)OCO2	2.5	.	5.7	-16.0	.	4.2	.	.	.	-9.4
C(=C\c1nccc2c1[nH]c1ccccc12)/c1ccccc1	-46.3	i	8.4	12.7	-5.3	39.8	-13.6	6.6	-4.5	19.1
CC(C)CNC(=S)N(CCO)Cc1cc2cc3c(cc2[nH]c1=O)OCO3	-5.3	i	-6.7	-5.5	2.2	44.3	11.3	6.8	2.3	5.8
COc1cc(C(=O)NCc2ccc3c(c2)OCO3)ccc1OCc1c(C)noc1C	-26.3	.	-0.3	1.4	.	-1.3	.	.	.	2.1
CCCCOC(=O)Nc1ccc(C(=O)OC)cc1	-4.4	.	-0.9	0.1	.	-7.1	.	.	.	5.3
O=C(O)c1cccc(CSc2nnc(-c3ccc(Cl)cc3)o2)c1	-9.5	i	?	.	-3.4	?	-28.2	-56.0	-0.4	-0.5
CCN1C/C(=N\S(=O)(=O)/N=C2\CN(CC)C(=O)N2CC)N(CC)C1=O	-1.3	i	0.7	-6.0	1.9	-4.6	12.1	9.5	1.7	-13.9
Cc1ccccc1NC(=O)Cc1nc(CCl)cs1	91.8*	.	3.0	-0.5	.	9.3	.	.	.	2.8
O=C(NCCCNC(=O)c1ccccn1)c1ccc(F)cc1	1.9	i	22.1	-2.4	-1.1	-8.6	-4.3	-3.1	-3.7	-23.2
COc1cc(/C=N/n2c(C)nc3ccccc3c2=O)cc(OC)c1O	.	i	-1.2	2.7	0.7	7.1	11.6	5.1	0.5	-9.0
Cc1ccccc1CN(c1ccc(C(=O)NCCC2=CCCCC2)cc1)S(C)(=O)=O	-7.8	.	-1.8	5.5	.	41.5	.	.	.	-2.4
O=C(NCCO)c1cccc2c1C(=O)c1ccccc1-2	-4.6	.	0.2	1.7	.	8.7	.	.	.	-0.6
Cc1ccc(-c2ccc(=O)n(CC(=O)NCCN(C)C)n2)cc1	-6.1	.	4.5	-2.3	.	1.6	.	.	.	-4.2
COc1c2ccoc2nc2c(OC)c(OC[C@@H](O)C(C)(C)O)ccc12	-11.7	i	.	3.4	2.4	.	.	.	.	.
Cc1ccc(OCC(=O)N/N=C/c2ccncc2)cc1C	-8.6	i	-8.6	-2.7	0.1	-4.4	-6.2	-2.3	0.4	13.3
COc1cccc(NC(=O)CN(C)C(C)C(=O)Nc2cc([N+](=O)[O-])ccc2Cl)c1 (centres undefined)	-21.1	i	1.9	5.7	0.8	-7.4	-2.9	0.8	2.2	3.8
CC(NC(=S)NCCN1CCOCC1)C12CC3CC(CC(C3)C1)C2 (centres undefined)	-5.5	i	2.6	.	3.7	-29.9	-17.0	-26.1	-0.8	0.0
O=C(COC(=O)c1ccccn1)Nc1ccc(S(=O)(=O)N2CCOCC2)cc1	-5.4	.	-1.6	4.7	.	-2.8	.	.	.	1.1
CCN1C2=NCCCN2c2ccccc21	64.6	.	0.5	-1.9	.	-3.7	.	.	.	-6.6
C=CC(COCc1ccccc1)N(Cc1ccc(OC)cc1)S(=O)(=O)c1ccccc1Br (centres undefined)	-6.4	i	-3.5	13.0	1.1	-10.8	18.9	11.3	-4.3	20.3
CC(=O)Nc1ccc(Nc2cc(C)nc3ccccc23)cc1	.	.	2.2	-0.7	5.2	0.0	3.8	8.1	-1.8	-1.3
CCOc1ccc(/C=C(\C)C(=O)c2c(C)cc(C)[nH]c2=O)cc1	2.2	i	1.0	.	1.3	-5.8	0.0	0.6	2.1	-7.4
CCn1c2ccccc2c2nnc(SCC(=O)Nc3ccc4c(c3)OCO4)nc21	-8.1	.	0.0	.	.	-10.1	.	.	.	-3.8
O=S(CCc1ccncc1)Cc1ccccc1 (centres undefined)	38.5	.	2.2	-4.0	.	4.4	.	.	.	-12.7
COc1ccc(/C=N/NC(=O)Cn2nnc3ccccc32)cc1OC	-8.2	i	6.7	6.8	3.1	2.5	0.6	0.8	-4.8	-4.3
O=C(CNS(=O)(=O)c1cccs1)N1CCc2ccccc2C1	-0.1	.	5.5	-3.3	.	1.1	.	.	.	-4.4
COc1ccc(OCC(O)CN2CCN(CC(O)COc3ccc(OC)cc3)CC2)cc1 (centres undefined)	44.2	i	0.4	-8.1	-6.9	5.8	-1.6	-20.3	-0.2	-8.2
COc1ccc(C2SCC(=O)N2CC23CC4CC(CC(C4)C2)C3)cc1 (centres undefined)	-4.6	i	-0.1	4.3	8.3	-2.8	-24.9*	-14.2*	-2.5*	60.9*
COc1ccc(/C=N/NC(=O)CN2CCSCC2)c(OC)c1	-31.1	.	-1.0	3.9	.	-26.0	.	.	.	-4.4

A few values from the list.
Reading for CCOc1ccc(/C=C(\C)C(=O)c2c(C)cc(C)[nH]c2=O)cc1 under Calb FLC: -5.8
Reading for COc1ccc(C2SCC(=O)N2CC23CC4CC(CC(C4)C2)C3)cc1 (centres undefined) under T cruzi inh: 60.9*
Reading for COc1ccc(/C=N/NC(=O)Cn2nnc3ccccc32)cc1OC under T cruzi inh: -4.3
Reading for C=CC(COCc1ccccc1)N(Cc1ccc(OC)cc1)S(=O)(=O)c1ccccc1Br (centres undefined) under Ecoli rRNA inh: 18.9
Reading for CC(NC(=S)NCCN1CCOCC1)C12CC3CC(CC(C3)C1)C2 (centres undefined) under T cruzi inh: 0.0
Reading for O=C(COC(=O)c1ccccn1)Nc1ccc(S(=O)(=O)N2CCOCC2)cc1 under T cruzi inh: 1.1

More entries follow:
SMILES	ALR H2O2 inh	FGF22 binding	RanGTP-Impb inh	Beta cell apopt	MLL AF4-AF9 inh	Calb FLC	Ecoli rRNA inh	Ecoli rRNA inh OD600	Ecoli rRNA inh RFP	T cruzi inh
COc1ccc(N2CC(NC(=O)NCCC(C)C)CC2=O)cc1 (centres undefined)	-8.1	i	11.9	-4.0	0.4	13.0	16.1	7.8	-3.4	15.6
C=C(C)c1cccc(C(C)(C)NC(=O)N2CCN(CC(N)=O)CC2)c1	-3.7	.	2.6	-3.3	.	3.0	.	.	.	0.2
Cc1ccccc1NC(=O)Cn1nnc2sc3c(c2c1=O)CC(C)(C)OC3	1.7	i	3.4	-4.2	-0.4	1.2	16.9	13.1	1.2	-12.4
COc1ccc(N(C(=O)Cn2nnc(-c3ccc(F)cc3)n2)C(C)C(=O)NC2CCCC2)cc1 (centres undefined)	-4.4	i	-1.7	-1.3	0.9	-17.9	1.2	-16.6	6.8	-5.1
Cc1ccc(-c2nnn(Cc3nc4ccccc4s3)n2)cc1	-0.2	.	0.9	-14.0	.	-25.4	.	.	.	18.0
O=C(Nc1ccccc1Cl)c1cc(=O)c2ccccc2o1	-5.8	i	-17.5	-2.1	0.7	3.2	15.7	1.8	2.1	-17.5
CCOC(=O)C(=O)Nc1cc(Cl)ccc1C	0.6	.	3.2	-1.5	.	-12.3	.	.	.	-13.0
CCOC(=O)Nc1ccc(C(=O)c2ccncc2)cc1	2.7	i	3.7	1.7	-1.6	-0.5	2.2	12.5	-1.0	-2.1
O=C(CSc1ncn[nH]1)c1ccco1	1.6	.	0.4	-1.5	.	29.4	.	.	.	2.5
CN(CC(=O)N1CCC(C(N)=O)CC1)S(=O)(=O)c1ccc2ccccc2c1	-1.7	i	1.8	0.2	2.1	-0.4	-0.7	7.5	-2.9	-4.2
CC(=O)CC(=O)Nc1ccc(Cl)cn1	13.5	i	1.9	-3.1	-2.5	0.5	11.3	11.7	-6.8	-3.0
COC(=O)Cn1c(C)nc2c(sc3nc(C)cc(C)c32)c1=O	-6.2	.	-6.6	1.4	.	-2.2	.	.	.	5.9
CCn1ccnc1CNCc1ccc(OCC(O)CN(C)Cc2ccccc2)cc1 (centres undefined)	-7.4	i	0.9	-12.6	8.3	-5.2	7.0	3.6	-3.5	-8.6
Cc1onc(-c2ccccc2Cl)c1C(=O)NCc1ccc(N2CCCC2=O)cc1	-7.0	.	3.4	1.1	.	2.9	.	.	.	-8.7
COc1ccc2cc3c(N)nn(C(=O)Cc4ccccc4OC)c3nc2c1	.	i	-9.3	-4.5	2.0	3.5	3.3	0.2	0.2	10.0
COC(=O)c1sccc1NC(=O)c1cc(-c2ccc(C)cc2)nc2ccccc12	7.3	.	5.8	-1.3	.	-5.9	.	.	.	-17.3
COc1ccccc1N1CCN(C2CCCCC2NS(=O)(=O)c2ccc(Cl)cc2)CC1 (centres undefined)	-9.0	.	2.0	17.3	.	-27.0	.	.	.	17.2
CCOc1ccc(N2CC(C(=O)Nc3nnc(SCCOC)s3)CC2=O)cc1 (centres undefined)	3.9	i	3.3	-0.3	-4.1	-2.8	0.1	8.8	1.8	-5.2
Cc1cc(CN2CCCC(CNC(=O)c3ccc(F)cc3)C2)cc(C)c1O (centres undefined)	26.3	i	-2.0	0.2	-0.9	-12.3	19.0	17.2	4.1	48.3
Cn1cccc1/C=N/N1CCN(Cc2ccccc2)CC1	74.4	i	-6.1	-8.1	11.2	-3.9	4.6	2.9	3.5	4.9
Cc1cc(=O)c2ccc(Cl)cc2[nH]1	.	.	-1.2	-10.6	.	-2.9	.	.	.	-18.5
C[C@H](CO)N1C[C@H](C)[C@@H](CN(C)Cc2ccc(C(=O)O)cc2)Oc2c(NS(=O)(=O)c3cn(C)cn3)cccc2C1=O	-3.8	i	.	-4.9	-0.6&3.1	.	2.1&9.4	7.2&3.4	-2.1&-1.8	.
O=C(CSc1nc2ccccc2s1)Nc1cc(C(=O)O)cc(C(=O)O)c1	99.3*	i	-0.7	-1.6	-2.8	35.5	19.8	14.5	3.0	-12.8
CCOC(=O)c1ccc(CNCc2ccc(C)cc2)cc1	-0.4	.	?	-0.8	.	-16.4	.	.	.	0.5
CCN(CCCNC(=O)CC1Oc2ccc(C)cc2NC1=O)Cc1ccccc1 (centres undefined)	5.3	i	4.5	-3.5	-6.1	-1.7	2.7	2.6	0.8	23.3
CC(C)(C)OC(=O)NCC(=O)N1CCC(C(=O)O)CC1	-10.9	.	4.3	5.4	.	-9.6	.	.	.	-30.4
O=C(Cc1ccc(Cl)cc1Cl)Nc1ccncc1Cl	2.6	i	2.8	61.9	-0.8	5.8	-7.7	-10.4	-4.7	9.4
c1csc(-c2cc(N3CCCCC3)c3ccccc3n2)c1	-3.8	i	4.6	3.7	-3.7	9.4	-16.6	-26.1	-8.1	13.0

Two neighbouring entries out of the list so far, for reference:
SMILES	ALR H2O2 inh	FGF22 binding	RanGTP-Impb inh	Beta cell apopt	MLL AF4-AF9 inh	Calb FLC	Ecoli rRNA inh	Ecoli rRNA inh OD600	Ecoli rRNA inh RFP	T cruzi inh
CC(C)(C)OC(=O)NCC(=O)N1CCC(C(=O)O)CC1	-10.9	.	4.3	5.4	.	-9.6	.	.	.	-30.4
O=C(Cc1ccc(Cl)cc1Cl)Nc1ccncc1Cl	2.6	i	2.8	61.9	-0.8	5.8	-7.7	-10.4	-4.7	9.4

Not all compounds are listed. The share of hits here may be higher or lower than overall.
